TsaE inh: displaces an ADP probe from E. coli YjeE (TsaE) | P0AF67 | 71,000 tested, 0.05% active | Potency, µM | purified YjeE, fluorescence polarisation of a bound ADP probe; active = well fitted falling curve; inconclusive = weaker or top-dose-only fall, or a rising curve; inactive = flat or poorly fitted curve;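 also: top concentration of the series not given in the record; excess ADP was the control for the full effect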
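Fluorescence polarization of a BODIPY Texas Red–ADP probe (2 uM) bound to purified YjeE (10 uM) was read after 15 min room-temperature incubation with compounds. Loss of polarization marks inhibitors; ADP serves as titrated control.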
PK Bst: modulators of Bacillus stearothermophilus pyruvate kinase; partly purified Bacillus stearothermophilus pyruvate kinase, luminescence ATP production; ribose 5-phosphate activator present at AC10; Potency, µM; 51,000 tested, 1.2% active; in the data active means potency below about 11 µM; inconclusive means mostly about 12 µM to 25 µM; inactive means weaker than that;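 the screen sought inhibitors and activators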;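 also: potency is read from the fitted curve at half-maximal effect; scaled between full activation by ribose 5 phosphate and full inhibition by luteolin; about four in five hits inhibit and the cells do not say which; series up to 57 µM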
An asterisk follows results filed as active; i = inactive; ? = inconclusive; / = not tested or not shown.

TsaE inh,PK Bst,mol
i,>57,C=CCn1c(=O)c2ccccc2n2c(SCc3c(C(=O)OCC)oc4ccccc34)nnc12
i,>57,CC(C)(C)c1ccc(NC(=O)CC2(C(F)(F)F)OCCO2)cc1
i,/,COC(=O)C1(Cc2ccccc2)C2c3cc(C(=O)N4CCCC4)n(Cc4ccc(OC(F)(F)F)cc4)c3CC2CN1C(=O)c1ccccc1 (stereo not given)
i,>57,CCOC(=O)c1ccccc1NC(=O)CN(c1ccccc1)S(=O)(=O)N(C)C
i,>57,Cc1nc2sc(-c3ccccc3)cc2c(=O)n1-n1cccc1
i,/,O=C(CCCCn1c(=O)[nH]c2ccccc2c1=O)N1CCN(c2ncccn2)CC1
i,>57,Cn1cnnc1SCC(=O)Nc1sccc1C#N
i,/,CCc1nnc(NC(=O)CCC(=O)N2CCN(CCOc3ccc(C)cc3)CC2)s1
i,>57,CC1=C(C(=O)OCc2ccccc2)C(c2ccccn2)c2c(n(C)c(=O)n(C)c2=O)N1 (stereo not given)
i,>57,Cc1c(NC(=O)COc2ncnc3c(Cl)cc(Cl)cc23)c(=O)n(-c2ccccc2)n1C
i,/,Cc1noc(C)c1-c1nc(N2CCNCC2)c2ccccc2n1
i,>57,CCNC(=O)NC1(C(=O)Nc2ccc3c(c2)CCC3)CCCCC1
i,/,O=C(NCCCc1ccccc1)C1CCN(c2nnc(-n3cccc3)s2)CC1
i,>57,CCN1CCN(S(=O)(=O)Cc2ccccc2)CC1
i,/,COc1cc2c(cc1OC)-c1c(OC)c(OC)cc3ccnc(c13)C2=O
i,>57,CCCc1cc(=O)[nH]c(SCC(=O)N2CCN(c3ccccc3)CC2)n1
i,>57,O=C(Cn1cnc2ccccc2c1=O)NC1CCCc2ccccc21 (stereo not given)
i,/,CCNc1nc(NC(C)C)nc(Nn2cnnc2)n1
i,/,C[C@@H](C[N+](C)(C)C)OC(N)=O
i,>57,CN(C)C(=O)N1CCCC(C(=O)NCc2ccc(F)cc2Cl)C1 (stereo not given)
i,/,Cc1cc(Nc2cc(C)on2)n2ncnc2n1
i,>57,CCCCCCn1cnc2c(c1=O)c1nc3ccccc3nc1n2/N=C/c1ccco1
i,?,c1ccc(OCCSc2nnc3sc4ccccc4n23)cc1
/,>11,O=C1CCC(=O)N1c1nc2nc(-c3ccccc3)cc(-c3ccccc3)n2n1
i,>57,O=C(CN(C(=O)Cn1nnc(-c2cccs2)n1)c1cnc2ccccc2c1)NCC1CCCO1 (stereo not given)

In a second layout: results already given.
SMILES | TsaE inh | PK Bst
O=C(Cn1cnc2ccccc2c1=O)NC1CCCc2ccccc21 (stereo not given) | i | >57
C=CCn1c(=O)c2ccccc2n2c(SCc3c(C(=O)OCC)oc4ccccc34)nnc12 | i | >57

Further structures:
TsaE inh,PK Bst,mol
/,i,COCCNc1oc(-c2ccc(C)cc2)nc1C#N
/,i,Cn1c(N2CCOCC2)nc2c1c(=O)n(Cc1ccc(Cl)c(Cl)c1)c(=O)n2C
i,/,O=C1CSC(=NC(=O)c2ccccc2)N1
i,>57,CC(=O)c1cccc(N(CC(=O)O)S(C)(=O)=O)c1
i,/,Cc1cnc(CNc2nc(-c3ccccc3C)nc3ccccc23)cn1
i,>57,O=C(NCc1ccc2c(c1)OCO2)C1CCN(S(=O)(=O)c2ccc(Br)s2)CC1
i,/,CC(CCc1ccccc1)C(=O)NO (stereo not given)
i,/,CC1(C)CC(=O)C(C=NCCCO)=C(O)C1
i,>57,O=C(NC1CCCC1)C(c1cccs1)N(C(=O)c1ccno1)c1ccccc1 (stereo not given)
i,>57,Cc1cccc(-c2nsc(SCC(=O)Nc3nccs3)n2)c1
i,/,Cc1ccc(N(C(C)C(=O)O)S(=O)(=O)c2cccnc2)cc1 (stereo not given)
i,>57,COc1ccc(OC)c(N=c2oc3cc(O)ccc3cc2C(N)=O)c1
i,/,Cc1cccc(NC2=NC3(CCCCC3)N=C(N)N2)c1C
i,/,O=C(c1cnn2c(C(F)(F)F)cc(-c3ccco3)nc12)N1CCCCCC1
i,>57,Cc1nc2ccc(C(C(F)(F)F)(C(F)(F)F)C(F)(F)F)cc2[nH]1
i,>57,Cc1cccc(OCc2nnc(SCC(=O)c3cccs3)n2C)c1C
i,>57,O=C1CC(N2CCC(c3nc4ccccc4o3)CC2)C(=O)N1c1ccc(Cl)cc1 (stereo not given)
i,>57,O=C(C1CCCCC1)N(CCN1CCCC1)c1nc2ccccc2s1
i,/,CCOC(=O)N1CCN(Cc2nc3c(c(=O)n(C)c(=O)n3C)n2Cc2ccc(F)cc2)CC1
i,>57,CCOC(=O)/C=c1\s/c(=C\c2ccc3c(c2)OCCO3)c(=O)n1CC(=O)NCC1CCCO1 (stereo not given)
i,>57,NC(=O)c1sc2nc3c(c(-c4cccs4)c2c1N)CCCC3
i,>57,CC(C)(C)c1cc(C(=O)O)nn1-c1ccccc1
i,/,Clc1cc(Cl)cc(Cl)c1
i,/,O=C(O)c1cccc(NS(=O)(=O)c2cccc3cccnc23)c1
i,/,COc1c2c(nc3ccccc13)O[C@H]([C@@](C)(O)CO)C2

The list goes on:
TsaE inh,PK Bst,mol
i,>57,Cc1n[nH]c(C)c1S(=O)(=O)N1CCCC(C(=O)Nc2ccc3c(c2)OCCO3)C1 (stereo not given)
i,>57,Cc1ccc2ncccc2c1NS(=O)(=O)c1ccccc1
i,?,Cc1ccccc1C(=O)Nc1ccc2c(c1)OCO2
i,/,COc1ccc(C2CC(c3c(Cl)cccc3Cl)n3nc(N)nc3N2)cc1 (stereo not given)
i,>57,CCC(C)(C)NC(=O)C(c1cccn1C)N(Cc1ccc(C)cc1)C(=O)Cn1nnc2ccccc21 (stereo not given)
i,>57,N#Cc1c(NC(=O)CSc2ncc(-c3ccccc3)n2CC2CCCO2)sc2c1CCCC2 (stereo not given)
i,>57,CCn1cnc2scc(-c3ccccc3)c2c1=O
/,>26,CC(C)OC(=O)CCNc1n[nH]c(=O)[nH]c1=O
i,/,CCn1c(SCC(N)=O)nc2c(c1=O)C1(CCCC1)Cc1ccccc1-2
i,>57,CCOC(=O)N1CCC(NC(=O)c2ccc(CNS(=O)(=O)c3ccc(F)cc3)cc2)CC1
i,>57,Cc1c(C(O)CN2CCC(C(N)=O)CC2)c2ccccc2n1C (stereo not given)
i,?,CCOC(=O)CC(=O)CSc1nc2c(c(C)c1C#N)CCC2
i,>57,CCOC(=O)C1CCN(C(=O)C2(NC(=O)Nc3ccccc3Cl)CCCCC2)CC1
i,>57,Cc1cccc2cc(CN(Cc3ccco3)C(=O)c3ccncc3)c(=O)[nH]c12
i,>57,Cc1cc(OCn2ccc(C(=O)O)n2)ccc1Cl
i,/,N[C@@H]1CCN(O)C1=O
i,>57,COC(=O)c1ccccc1NC(=O)CN1C(=O)c2ccccc2S1(=O)=O
i,/,CC(C)(C)c1ccccc1OCCCCCNCCO
i,8.6*,Cc1ccc(S(=O)(=O)N2CCOCC2)cc1C(=O)Nc1nc(-c2cccnc2)cs1
i,>57,CC(C)N=C(NC#N)SCc1ccc(F)cc1
i,/,CCOc1ccc(N2CC(C(=O)Nc3ccccc3OC)CC2=O)cc1 (stereo not given)
i,>57,CCCOC1CCCN(C(=O)c2cc(Cl)c(Cl)cc2C(=O)O)C1 (stereo not given)
/,>26,Cc1ncc([N+](=O)[O-])n1CC(O)CCl (stereo not given)
i,/,COc1cccc(CNC(=O)CN(c2cc(C)cc(C)c2)S(=O)(=O)c2c(C)noc2C)c1
i,>11,CC(C)Oc1ccc(NC(=O)c2ccncc2)cc1

(next part)
TsaE inh,PK Bst,mol
i,/,COc1ccc(-c2nc3cnc(N4CCOCC4)nc3n(-c3ccccc3)c2=O)cc1
i,/,Cc1nn(-c2ccccc2)c2nc(-c3ccco3)cc(C(=O)O)c12
i,1.1*,CN(C)c1ccc(-c2nc3ccccc3n2C)cc1
i,>57,CCCCNC(=O)c1ccc(NS(=O)(=O)c2ccccc2)cc1
i,>57,CCCCCn1c(SCC(=O)OCC)nc2cc(C(=O)NCc3ccco3)ccc2c1=O
i,/,Cc1cccc(N2CCN(C3=NC(=O)C(=C4CCCCC4)S3)CC2)c1
i,>57,Cc1noc(C)c1C(=O)Nc1sc2c(c1C(N)=O)CCCCC2
i,>57,O=C(NCc1ccccn1)Nc1ccc(F)cc1
i,>57,O=C(c1cccs1)N1CCOCC1
i,>57,CCOC(=O)Cn1nc(-c2ccccc2)nc1-c1ccccc1
i,/,CCOc1ccc(C(=O)COC(C)=O)cc1
i,/,CCC(=O)Nc1cc2c(cc1C(C)=O)OCCO2
i,/,CCCOc1ccc(C2c3c(oc4cc(C)c(C)cc4c3=O)C(=O)N2CCCN(C)C)cc1 (stereo not given)
i,>57,CSc1nnnn1-c1ccc(C(=O)OCC(=O)N2CCOCC2)cc1
i,>57,COc1ccc(CCNC(=O)Cn2cnc3c(cnn3C(C)(C)C)c2=O)cc1OC
i,>57,O=c1c2c(nc3nc(CCc4ccccc4)[nH]n13)CCC2
i,>57,C=CCn1c(N)c(S(=O)(=O)c2cccs2)c2nc3ccccc3nc21
i,>57,Cc1ccc(C2C(C#N)=C(N)Oc3c2oc(CO)cc3=O)o1 (stereo not given)
i,/,CCc1noc2c1/C(=N\O)CC(c1ccccc1)C2 (stereo not given)
i,>57,O=S(=O)(c1ccc(F)cc1)N1CCC(N2CCN(c3ccccc3)CC2)CC1
i,>57,COc1cccc(-n2nnnc2SCC(=O)NCCc2ccccc2)c1
i,/,COC(=O)c1ccc(C(/C=C/[C@@H](C)C(=O)NCc2cc(C)n(C)n2)NC(=O)OCc2ccccc2)cc1 (stereo not given in full)
/,>26,CCOc1cccc(-c2nnc3sc(-c4ccco4)nn23)c1
i,>57,CCN(C(=O)CSc1nnc(-c2ccccc2Cl)n1C1CCCC1)C1CCS(=O)(=O)C1 (stereo not given)
i,/,CCNc1nc(NCC)nc(-n2nc(C)cc2C)n1

The closing 2 entries of the section before are carried over, then new ones follow:
TsaE inh,PK Bst,mol
i,>57,CCN(C(=O)CSc1nnc(-c2ccccc2Cl)n1C1CCCC1)C1CCS(=O)(=O)C1 (stereo not given)
i,/,CCNc1nc(NCC)nc(-n2nc(C)cc2C)n1
i,>57,OCCN(Cc1ccccc1)CC1CCCCC1
i,>57,CSc1nc2nc(-c3ccccc3)cc(C(F)(F)F)n2n1
i,>57,O=C(NCc1cccnc1)Nc1cccc(NC(=O)NCc2cccnc2)c1
i,>57,N#Cc1nc(-c2ccccc2F)oc1NCCc1ccccn1
/,>26,COC(=O)CSc1nc2sc3c(c2c(=O)n1C1CCCCC1)CCN(C)C3
i,>57,CCOc1ccc2nc(C)cc(C(=O)O)c2c1
i,/,COCCCNC(=O)COc1ccc(Cl)c(C)c1
i,>57,COc1ccc2c(c1)CCc1c(C(=O)Nc3c(C)n(C)n(-c4ccccc4)c3=O)noc1-2
i,>57,C=CCn1c(SCC(=O)Nc2ccc(C(=O)OCC)cc2)nnc1-c1sc(N)nc1C
i,>57,COCc1cc(=O)n2c(-c3ccccc3OC)n[nH]c2n1
i,/,CC(NS(C)(=O)=O)C(c1cccs1)N1CCN(Cc2ccccc2)CC1 (stereo not given)
i,>57,O=C(NCC1CCCO1)c1ccccn1 (stereo not given)
i,>57,Cc1cc(=O)n2c(C)n[nH]c2n1
i,/,CCCC(O)C(CC)CO (stereo not given)
i,>57,O=C(CSc1nnc(NC2CCCCC2)s1)NC1CCS(=O)(=O)C1 (stereo not given)
i,/,CC1Cc2nc(SCC(=O)Nc3nccs3)n(Cc3ccccc3)c(=O)c2S1 (stereo not given)
i,>57,Cc1cc(C2C(=O)CC(=O)CC2c2ccccc2)on1 (stereo not given)
i,>57,COc1ccccc1C(=O)NCCCn1cc(Br)c(C)n1
i,>57,O=C(O)c1ccc(NC(=O)c2cccs2)cc1
i,>57,COc1cccc(-n2c(SCC(=O)NCCc3ccccc3)nnc2-c2ccoc2C)c1
i,>57,Cc1cccc(N2CCN(C(=O)c3ccc(Cl)c(S(=O)(=O)NCc4ccco4)c3)CC2)c1C
i,>57,CC(=O)OCC(=O)Nc1ccc(Cl)cc1Cl
/,>26,Cc1cc(N2CCN(C3CCCC3)CC2)n2c(nc3ccccc32)c1C#N
i,/,CC(=O)Nc1cccc(-c2csc(NCc3ccco3)n2)c1
i,/,COc1ccc(NC(=O)N2CC3(CCN(C(=O)c4ccco4)CC3)C2)cc1

Going on with the list.
TsaE inh,PK Bst,mol
i,>57,COC(=O)c1c(NC(=O)Cc2cccs2)sc(C(=O)N2CCCCC2)c1C
i,>57,Cc1nnc2n1NC(c1ccc(Cl)cc1)C(C(=O)N(C)C1CCCCC1)S2 (stereo not given)
i,>57,CCOCCCn1c(=NC(C)=O)c(C(=O)OCC)cc2c(=O)n3ccccc3nc21
i,/,CCCN(CCC)CCc1cccc2c1CC(=O)N2
i,>57,CC(C)CCn1cnc2c([nH]c3cccc(Cl)c32)c1=O
i,>57,COc1ccc(C)cc1NS(=O)(=O)c1cccc2nonc12

A section from the list above, as a working copy:
TsaE inh,PK Bst,mol
i,>57,C=CCn1c(=O)c2ccccc2n2c(SCc3c(C(=O)OCC)oc4ccccc34)nnc12
i,>57,CC(C)(C)c1ccc(NC(=O)CC2(C(F)(F)F)OCCO2)cc1
i,/,COC(=O)C1(Cc2ccccc2)C2c3cc(C(=O)N4CCCC4)n(Cc4ccc(OC(F)(F)F)cc4)c3CC2CN1C(=O)c1ccccc1 (stereo not given)
i,>57,CCOC(=O)c1ccccc1NC(=O)CN(c1ccccc1)S(=O)(=O)N(C)C
i,>57,Cc1nc2sc(-c3ccccc3)cc2c(=O)n1-n1cccc1
i,/,O=C(CCCCn1c(=O)[nH]c2ccccc2c1=O)N1CCN(c2ncccn2)CC1
i,>57,Cn1cnnc1SCC(=O)Nc1sccc1C#N

Screens: PubChem BioAssay, National Center for Advancing Translational Sciences (NCATS)

The list is partial. The share of hits here may be higher or lower than overall.
